# Screens as filed in PubChem.
# TRPML1 ag: activates the human TRPML1 channel; TRPML1-expressing cells, Ca2+ dye fluorescence, FDSS; host cell line not named in the record; reference of the full effect not given here; Q9GZU1; hit rate 0.12% among 410,000; activation, % (no concentration beside the values); in the data active = activation above about 50%; inconclusive = about 30% to 50%; inactive = below about 30%; also: 0% is about no effect; the text of the record puts the active cut at 80%
# Target sequence (Q9GZU1 whole entry, looked up): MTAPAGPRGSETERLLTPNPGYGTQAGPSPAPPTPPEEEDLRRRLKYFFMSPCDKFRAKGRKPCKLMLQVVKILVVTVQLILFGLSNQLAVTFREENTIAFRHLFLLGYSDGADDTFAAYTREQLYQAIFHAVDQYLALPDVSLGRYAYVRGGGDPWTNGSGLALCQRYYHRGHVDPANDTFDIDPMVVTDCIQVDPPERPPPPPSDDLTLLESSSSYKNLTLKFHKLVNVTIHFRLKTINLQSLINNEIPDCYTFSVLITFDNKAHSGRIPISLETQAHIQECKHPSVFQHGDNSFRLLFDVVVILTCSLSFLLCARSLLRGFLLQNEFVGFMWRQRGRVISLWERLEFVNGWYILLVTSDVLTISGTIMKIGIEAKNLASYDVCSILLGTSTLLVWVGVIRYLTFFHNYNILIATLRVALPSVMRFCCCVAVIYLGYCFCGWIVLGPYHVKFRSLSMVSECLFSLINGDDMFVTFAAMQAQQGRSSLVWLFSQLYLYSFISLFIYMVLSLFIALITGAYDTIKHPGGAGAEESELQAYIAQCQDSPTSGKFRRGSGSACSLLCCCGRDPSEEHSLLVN
#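 In this qHTS format, compounds were pin-transferred onto Ca8-dye-loaded TRPML1-DL cells induced with Tet overnight, and intracellular Ca2+ fluorescence was recorded kinetically for 110 s after a 10 s baseline. A subsequent 4uM final 54-4 (EC80) addition followed by a second 110 s read served as the antagonist phase.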
# D2 PAM: positive allosteric modulators of human D2 dopamine receptor; P14416; AID 624464; DiscoveRx D2 beta-arrestin cells, luminescence, 90 min; 100% = 57 uM dopamine signal; hit rate 0.23% among 360,000; potentiation, % (test concentration not listed); active = potentiation of 50% or more; inconclusive = 30% to 50%; inactive = 30% or less;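 also: compound concentration not given in the record; tested on top of an EC20 dose of dopamine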
# Target sequence (P14416 whole entry, looked up): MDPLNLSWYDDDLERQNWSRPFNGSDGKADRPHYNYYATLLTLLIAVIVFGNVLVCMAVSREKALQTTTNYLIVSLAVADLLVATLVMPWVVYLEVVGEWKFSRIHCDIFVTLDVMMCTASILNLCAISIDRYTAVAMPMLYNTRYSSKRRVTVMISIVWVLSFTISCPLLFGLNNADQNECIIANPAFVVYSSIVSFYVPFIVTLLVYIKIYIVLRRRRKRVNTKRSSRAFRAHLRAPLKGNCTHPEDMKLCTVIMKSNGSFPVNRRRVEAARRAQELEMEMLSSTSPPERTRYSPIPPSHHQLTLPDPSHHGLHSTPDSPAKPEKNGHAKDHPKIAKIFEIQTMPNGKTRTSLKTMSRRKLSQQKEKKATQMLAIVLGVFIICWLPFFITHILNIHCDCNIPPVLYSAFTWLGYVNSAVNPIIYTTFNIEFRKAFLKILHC
#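 PathHunter beta-arrestin assay in DiscoveRx D2 cells. Compounds were added with an EC20 of dopamine (50 nM final) for 90 min at 37 deg C. Luminescence was read 1 h after detection reagent, with 57 uM dopamine as the EC100 control.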
# D2 ag: activates the human D2 dopamine receptor; activation, % (no concentration beside the values); hit rate 0.084% among 360,000; P14416; DiscoveRx PathHunter D2 beta-arrestin, luminescence, 90 min; 100% = 57 uM dopamine signal; in the data active = activation above about 40%; inconclusive = about 15% to 40%; inactive = below about 15%; also: compound concentration not given in the record; the text of the record calls up to 30% inactive
#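 Agonist mode: compounds alone added to overnight-plated D2 PathHunter cells for 90 min at 37 C, with 57 uM final dopamine (EC100) defining full response. Beta-arrestin recruitment detected by chemiluminescent reagent, read after 1 h at ambient temperature.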
# TRPML1 inh: human mucolipin-1 channel inhibition | Q9GZU1 | TRPML1-inducible cells, Ca2+ dye fluorescence, FDSS; hits give low values; inhibition of EC80 agonist-evoked calcium signal | activity change, negative = inhibition, % (no concentration beside the values) | hit rate 0.02% among 390,000 | AID 624415; in the data active means activity change below about -50%; inconclusive means about -30% to -50%; inactive means above about -30%;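 also: stimulus is agonist 54-4 at its EC80 concentration; % is scaled to controls: 0 for no effect and ±100 for the full control effect; compound concentration not given in the record; the text of the record puts the active cut at -80%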
#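 Calcium fluorescence in TRPML1-DL cells induced overnight with Tet: a 110 s read after compound pin addition, then a 110 s antagonist read after challenge with 54-4 at 4 uM final (EC80).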
# PINK1 modulator: changes PINK1 expression; PINK1 immunofluorescence, high-content cytometry, 24 h; Potency, µM (series often up to 76.6 µM), for inactives: at the highest dose activation (PINK1 increase), usual class: activators; hit rate 0.2% among 410,000; active = well fitted activation curve with a large enough effect; inconclusive = small, poorly fitted or top-dose-only effect; inactive = flat fitted curve, though single readings scatter; cell line not stated here;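 also: potency is read from the fitted curve at half-maximal effect; % of control where 0% means no effect; nearly all actives have a fitted effect of over 65% in size; a mitochondrial uncoupler was the plate control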
#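 Readout is PINK1 immunofluorescence, quantified alongside mitochondrial, cell and nuclear markers by laser-scanning microplate cytometry. Cells from a stable line were exposed to compound titrations (5 concentrations) for 24 hours, with CCCP controls.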
# Six1-Eya2 inh: blocks human Six1 binding to Eya2; Q15475+O00167; AlphaScreen GST-Six1/His-Eya2 binding, biochemical; hits give low values; control for the full effect not named in the record; activity change, % (test concentration not listed); hit rate 0.56% among 360,000; AID 651725; in the data active = activity change below about -65%; inconclusive = about -30% to -65%; inactive = above about -30%; also: % is scaled to controls: 0 for no effect and ±100 for the full control effect; compound concentration not given in the record
#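 Homogeneous AlphaScreen proximity assay pairing GST-Six1 with His-tagged Eya2 (added as 5X mix: 250 nM and 500 nM) in 50 mM Tris pH 8.0, 300 mM NaCl, 1 mM TCEP. Glutathione donor and nickel acceptor beads; 1 h, 37 °C, dark.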
# The depositor's hits bear a star; u = inconclusive; x = no result given; [ ] = remark or other dose.
# Every second line gives: TRPML1 ag | D2 PAM | D2 ag | TRPML1 inh | PINK1 modulator | Six1-Eya2 inh
- CCCCN(C)CCNC(=O)C(=O)c1c(C)[nH]c2ccccc12
 : -1.1 | -7 | -4.4 | 3 | 2.1% | 4
- O=C(COc1cccc2c1CCNC2=O)Nc1ccc(Cl)cc1
 : -0.7 | -23 | 0.7 | 46 | 7.9% | -12
- Cn1c2ccccc2c2n[nH]c(=O)nc21
 : -0.6 | -4 | -3.0 | 21 | 0.1% | -25
- COc1cccc(C2=CC(c3cccs3)n3nnnc3N2)c1 (configuration not stated)
 : 0.2 | -8 | -3.1 | -4 | 3.8% | -3
- Cc1ccc(SCc2nc(-c3ccc(C(=O)NCC(C)c4ccccc4)cc3)oc2C)cc1 (configuration not stated)
 : 4.1 | x | x | 20 | 3.2% | x
- C=CCC[C@H](Cc1ccc(F)cc1)C(=O)OC[C@H](Cc1c[nH]c2ccccc12)NC(=O)[C@H](CC=C)CC(=O)N[C@H](CO)Cc1ccccc1
 : 1.1 | -3 | -2.2 | -6 | 1.7% | 1
- CC1(c2cc(F)ccc2F)NC(=O)N(CC(=O)Nc2cccc(S(=O)(=O)N3CCCC3)c2)C1=O (configuration not stated)
 : -0.3 | -1 | 4.5 | 6 | 1.2% | -4
- O=C(c1ccccc1)N1CCCCC(S(=O)(=O)c2ccc3ccccc3c2)C1=O (configuration not stated)
 : 0.4 | -13 | 0.4 | -7 | 5µM* | 0
- CCCNC(=S)N1CCC(n2cnc3ccccc32)CC1
 : 0.9 | -16 | 0.1 | 6 | -0.1% | -3
- COC(=O)C12CCC(C)(c3nc4ccccc4nc31)C2(C)C (configuration not stated)
 : -0.5 | -6 | 4.7 | 7 | 0.3% | 4
- O=C(c1ccco1)N(Cc1cccs1)C1CCS(=O)(=O)C1 (configuration not stated)
 : -0.3 | 18 | -1.0 | 25 | -0.1% | 9
- Cc1cc(NC(=O)c2ccc(Cn3nc(C)c(Br)c3C)o2)no1
 : -0.1 | 24 | -1.8 | 39 | x | -70*
- CC(=O)c1sc(NC(=O)C2(F)C(F)(F)C(F)(F)C(F)(F)C(F)(F)C2(F)F)nc1C
 : 0.5 | -3 | 3.3 | 10 | x | -2
- CC(C)(C)C(=O)Nc1nnc(CC(=O)NCc2ccccc2)s1
 : 1.6 | -4 | 0.5 | -26 | -2.1% | -2
- Cc1ccc(-n2ncc(C(=O)N3CCN(C(=O)c4ccco4)CC3)c2-n2cccc2)cc1
 : 1.6 | 21 | 6.3 | 8 | 0.8% | 6
- CN1CCN(C(=O)C(=O)Nc2c3c(nn2-c2cccc(Cl)c2)CSC3)CC1
 : -0.4 | x | x | -7 | -0.6% | x
- O=c1c2ccccc2ncn1C1CCCCC1
 : -0.5 | 8 | -1.8 | 13 | 3.3%[38.3 µM] | 3
- CCOc1ccc(S(=O)(=O)Nc2ncn[nH]2)cc1
 : -0.3 | -4 | -4.5 | -4 | -0.5% | 5
- O=[N+]([O-])c1cc(-c2csc(NCCc3nc4cc(Cl)c(N5CCCCC5)cc4n3CCCO)n2)ccc1Cl
 : -0.2 | -3 | -3.3 | -17 | 2.7% | -11
- O=C1NCCN1CCNS(=O)(=O)c1ccccc1[N+](=O)[O-]
 : 0.9 | -1 | -1.8 | 14 | 0.1% | 3
- CCOC(=O)c1c(C)[nH]c(C(=O)CSc2nnc(-c3cccs3)n2Cc2ccccc2)c1C
 : 0.3 | -21 | -1.9 | 3 | 2.0% | 2
- COc1cccc(NC(=O)C(C)C)c1
 : -0.9 | -1 | -0.9 | -4 | -1.1% | -4
- COc1ccccc1N1CCN(c2ncc3c(n2)CCN(Cc2ccc(C)s2)C3)CC1
 : -0.2 | x | x | 9 | 0.9% | x
- O=C1CCC(=O)N1OCCCOc1ccc2c(c1)CCC2
 : 0.3 | -8 | -2.9 | 60 | 2.2% | -2
- COCCNc1nc(C)cc(-c2cc(C(=O)Nc3ccccc3)on2)n1
 : -0.6 | -2 | -0.1 | -14 | 0.1% | 2
- O=C(O)C(Cc1ccccc1)N=C(NS(=O)(=O)c1ccccc1)c1ccccc1 (configuration not stated)
 : 0.8 | -1 | -5.6 | 1 | -0.7% | 6
- CC1CCCC(NC(=S)Nc2cccc(S(=O)(=O)N(C)C)c2)C1C (configuration not stated)
 : 0.0 | -17 | 3.9 | 2 | u | -5
- COc1ccccc1P(=O)(c1ccccc1)c1ccccc1NC(C)=O (configuration not stated)
 : 1.6 | -5 | -3.3 | -4 | 2.3% | 6
- COc1ccc(Cc2nnc(NC(=O)c3ccc(C)cc3)s2)cc1OC
 : 0.0 | 3 | 7.4 | 2 | 0.0% | 1
- Cc1cccc(N=C2C(=O)Nc3c(Cl)cccc32)c1
 : x | -96 | -24 | x | 1.9% | 5
- Cc1ccc(C(=O)NC2(O)C(=O)c3ccccc3C2=O)cc1C
 : 0.9 | -36 | -12 | 6 | -0.3% | 8
- C=CCn1c(=O)/c(=C2/SC(C)=C(C)N2CC)s/c1=C1/C(=O)N(CC)C(=S)N1c1ccccc1
 : -0.4 | -16 | -1.2 | -3 | 2.2% | 8
- O=C(CN1CCN(Cc2ccc(F)cc2Cl)S1(=O)=O)Nc1ccc(F)cc1
 : 0.1 | x | x | 11 | 1.8% | x
- CN(C)S(=O)(=O)c1cccc(NC(=O)c2ccccc2OCc2ccc(F)cc2)c1
 : 2.2 | 1 | -4.3 | 20 | 4.7% | -22
- CC(C(=O)O)N(C(=O)c1ccccc1)c1ccc(F)cc1 (configuration not stated)
 : 0.7 | -1 | -2.4 | 11 | 2.2% | 0
- N#Cc1ccc(N2CCN(c3ccc(F)cc3)CC2)cc1
 : 1.2 | -3 | -1.2 | -5 | -3.8% | -4
- CCOC(=O)c1[nH]c2ccc(OC)cc2c1N=CN(C)C
 : -0.4 | 13 | -2.2 | 25 | -0.4% | -2
- CCOC(=O)c1cnn(-c2ccccc2)c1-n1cccc1C(=O)C(=O)Nc1ccc(OC)cc1
 : 2.7 | -5 | -6.0 | -13 | -3.5% | -18
- C[C@H](CO)N1C[C@H](C)[C@@H](CN(C)C(=O)Nc2ccccc2)Oc2c(NS(=O)(=O)c3cn(C)cn3)cccc2C1=O
 : 0.2 | -10 | -3.3 | -14 | -1.1% | 2
- COCCCNC(=O)CN(Cc1ccccc1)S(=O)(=O)c1ccccc1
 : 0.0 | -2 | 4.0 | -5 | -1.0% | 5
- CCOc1ccc2[nH]c(=O)c(CN(Cc3ccc(C)cc3)C(=O)N3CCCC3)cc2c1
 : 3.3 | -16 | -0.1 | 9 | 1.6% | 1
- CCOC(=O)C(CCC(=O)O)(CCC(C)C)c1csc(N)n1 (configuration not stated)
 : -1.0 | -1 | -2.1 | 7 | -1.6% | -1
- COc1ccc2[nH]c(=O)c(CN(CC3CCCO3)C(=S)Nc3ccc(C)cc3)cc2c1 (configuration not stated)
 : 3.6 | -5 | -4.4 | 17 | 10% | 6
- CC(=O)NC(CSc1cc(C)nc2ccc(Br)cc12)C(=O)O (configuration not stated)
 : -0.5 | -9 | -2.9 | 0 | -0.5% | 1
- COc1cccc(-c2ncc3ccccn23)c1
 : -0.6 | 8 | -6.3 | 2 | 3.4% | -14

# 16 of the compounds above, as comma-separated lines.
compound,TRPML1 ag,D2 PAM,D2 ag,TRPML1 inh,PINK1 modulator,Six1-Eya2 inh
Cc1cccc(N=C2C(=O)Nc3c(Cl)cccc32)c1,x,-96,-24,x,1.9%,5
Cc1ccc(C(=O)NC2(O)C(=O)c3ccccc3C2=O)cc1C,0.9,-36,-12,6,-0.3%,8
C=CCn1c(=O)/c(=C2/SC(C)=C(C)N2CC)s/c1=C1/C(=O)N(CC)C(=S)N1c1ccccc1,-0.4,-16,-1.2,-3,2.2%,8
O=C(CN1CCN(Cc2ccc(F)cc2Cl)S1(=O)=O)Nc1ccc(F)cc1,0.1,x,x,11,1.8%,x
CN(C)S(=O)(=O)c1cccc(NC(=O)c2ccccc2OCc2ccc(F)cc2)c1,2.2,1,-4.3,20,4.7%,-22
CC(C(=O)O)N(C(=O)c1ccccc1)c1ccc(F)cc1 (configuration not stated),0.7,-1,-2.4,11,2.2%,0
N#Cc1ccc(N2CCN(c3ccc(F)cc3)CC2)cc1,1.2,-3,-1.2,-5,-3.8%,-4
CCOC(=O)c1[nH]c2ccc(OC)cc2c1N=CN(C)C,-0.4,13,-2.2,25,-0.4%,-2
CCOC(=O)c1cnn(-c2ccccc2)c1-n1cccc1C(=O)C(=O)Nc1ccc(OC)cc1,2.7,-5,-6.0,-13,-3.5%,-18
C[C@H](CO)N1C[C@H](C)[C@@H](CN(C)C(=O)Nc2ccccc2)Oc2c(NS(=O)(=O)c3cn(C)cn3)cccc2C1=O,0.2,-10,-3.3,-14,-1.1%,2
COCCCNC(=O)CN(Cc1ccccc1)S(=O)(=O)c1ccccc1,0.0,-2,4.0,-5,-1.0%,5
CCOc1ccc2[nH]c(=O)c(CN(Cc3ccc(C)cc3)C(=O)N3CCCC3)cc2c1,3.3,-16,-0.1,9,1.6%,1
CCOC(=O)C(CCC(=O)O)(CCC(C)C)c1csc(N)n1 (configuration not stated),-1.0,-1,-2.1,7,-1.6%,-1
COc1ccc2[nH]c(=O)c(CN(CC3CCCO3)C(=S)Nc3ccc(C)cc3)cc2c1 (configuration not stated),3.6,-5,-4.4,17,10%,6
CC(=O)NC(CSc1cc(C)nc2ccc(Br)cc12)C(=O)O (configuration not stated),-0.5,-9,-2.9,0,-0.5%,1
COc1cccc(-c2ncc3ccccn23)c1,-0.6,8,-6.3,2,3.4%,-14

# Next part
# Every second line gives: TRPML1 ag | D2 PAM | D2 ag | TRPML1 inh | PINK1 modulator | Six1-Eya2 inh
- O=C(CN1C(=O)NC2NC(=O)NC21)NN=C1CCCC1 (configuration not stated)
 : 0.9 | -6 | -5.4 | -2 | -1.3% | 0
- CCOC(=O)N1CCN(C(=O)c2cccc(NC(=O)c3ccco3)c2)CC1
 : -1.0 | -12 | -2.3 | 20 | 0.2% | 4
- Cc1ccc2oc(C(=O)N(Cc3sccc3C)C3CCS(=O)(=O)C3)c(C)c2c1 (configuration not stated)
 : -0.2 | x | x | -17 | 1.5% | x
- CCn1cc(C(=O)N2CCN(c3ccc([N+](=O)[O-])cc3)CC2)c(=O)c2ccc(C)nc21
 : -1.4 | -6 | -6.2 | 28 | -1.4% | 1
- COC(C[C@H](O)CC(=O)COCc1ccccc1)OC
 : 0.3 | -6 | 0.2 | 24 | -0.7% | 6
